Bioassay records deposited in PubChem by Broad Institute.
NOMO-1 viab: STK33 inhibitor candidate reducing NOMO-1 cell viability; NOMO-1 AML viability, CellTiter-Glo luminescence, 72 h; inhibition, % (no concentration beside the values); 7.5% of 37,000 active;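 active means most replicates above 80%; inconclusive means exactly half above 80%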;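 further: wells of about 30 µL received 25 nL stock; 0% = median of vehicle wells and 100% = reference inhibitor level; the first replicate is given; inactives centre near 10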
* hit, by the source's call; ? = inconclusive.

SMILES | NOMO-1 viab
CC(C)c1ccc(NC(=O)CN(C)S(=O)(=O)c2ccc3ccccc3c2)cc1 | -9
Cc1noc(C)c1NC(=O)N(C)C[C@H]1Oc2ccc(NS(C)(=O)=O)cc2CC(=O)N([C@@H](C)CO)C[C@H]1C | -12
C[C@H](CO)N1C[C@H](C)[C@H](CN(C)C(=O)NC2CCCCC2)Oc2c(NS(=O)(=O)c3cccs3)cccc2C1=O | 58
C[C@H](CO)N1C[C@H](C)[C@H](CN(C)Cc2ccc(C(=O)O)cc2)Oc2ccc(NC(=O)Nc3cccc4ccccc34)cc2C1=O | -7
C[C@H]1CN([C@@H](C)CO)C(=O)c2cc(NC(=O)C3CC3)ccc2O[C@@H]1CN(C)C(=O)Nc1ccc(C(F)(F)F)cc1 | -6
CNC[C@H]1Oc2ccc(NS(=O)(=O)c3ccccc3)cc2CC(=O)N([C@@H](C)CO)C[C@H]1C | -1
COc1ccc(NC(=O)Nc2ccc3c(c2)C(=O)N([C@@H](C)CO)C[C@@H](C)[C@@H](CN(C)Cc2ccc(Oc4ccccc4)cc2)O3)cc1 | 117*
COc1ccc(NC(=O)N(C)C[C@@H]2Oc3ccc(NC(=O)C4CC4)cc3C(=O)N([C@H](C)CO)C[C@@H]2C)cc1 | 32
Cc1ccc(S(=O)(=O)N(C)C[C@@H]2Oc3ccc(NS(=O)(=O)c4c(C)noc4C)cc3C(=O)N([C@H](C)CO)C[C@@H]2C)cc1 | 13
Cc1ccc(S(=O)(=O)Nc2ccc3c(c2)C(=O)N([C@H](C)CO)C[C@H](C)[C@@H](CN(C)C(=O)Nc2cccc4ccccc24)O3)cc1 | 2
CC(C)NC(=O)N(C)C[C@H]1Oc2c(NC(=O)C3CCCCC3)cccc2C(=O)N([C@@H](C)CO)C[C@@H]1C | 13
COC(=O)c1c(-c2ccccc2)csc1NC(=O)c1cc(-c2cccnc2)nc2ccccc12 | 104*
CCc1ccc(NC(=O)Cn2cnc3ccccc3c2=O)cc1 | 13
C[C@H](CO)N1C[C@H](C)[C@H](CN(C)Cc2ccncc2)Oc2ccc(NC(=O)Nc3cccc4ccccc34)cc2C1=O | 98*
Cc1ccc(S(=O)(=O)Nc2ccc3c(c2)C(=O)N([C@H](C)CO)C[C@H](C)[C@H](CN(C)C(=O)Nc2c(C)noc2C)O3)cc1 | -12
Cc1ccc(-c2cc(C(F)F)n3ncc(C(=O)NCCN4CCOCC4)c3n2)cc1 | 25
O=C(Cc1ccccc1)NC1CCN(C(=O)c2ccco2)CC1 | -5
C[C@@H]1CN([C@@H](C)CO)C(=O)c2cc(NS(=O)(=O)c3cn(C)cn3)ccc2O[C@@H]1CN(C)Cc1ccncc1 | 17
Cc1cc2ncn(CC(O)COC3CCCCC3)c2cc1C (centres undefined) | 22
O=C(CC1NCCNC1=O)Nc1ccc([N+](=O)[O-])cc1 (centres undefined) | 9
C[C@@H]1CN([C@H](C)CO)C(=O)Cc2cc(NC(=O)Cn3cnnn3)ccc2O[C@H]1CN(C)Cc1ccc(-c2ccccc2)cc1 | -10
Cc1ccc(NC(=O)COc2ccccc2)c(NC(=O)C2CC2)c1 | -7
COc1cc(C(O)CCOC2OC(CO)C(O)C(O)C2O)cc2cc(-c3ccc4c(c3)OCO4)oc12 (centres undefined) | 21
Cc1ccc(S(=O)(=O)Nc2ccc3c(c2)C(=O)N([C@H](C)CO)C[C@H](C)[C@@H](CN(C)Cc2ccc(Cl)c(Cl)c2)O3)cc1 | 8
FC(F)(F)c1ccc(-c2nnc(SCc3ccncc3)n2Cc2ccco2)cc1 | 20
CC(C(=O)Nc1ccc(I)cc1)N(c1ccc(Cl)cc1)S(C)(=O)=O (centres undefined) | 37
COc1cc2c(c(OC)c1)C(=O)OC(C)C2 (centres undefined) | 25
C[C@@H]1CCCCO[C@H](CN(C)C(=O)C2CCCCC2)[C@@H](C)CN([C@H](C)CO)C(=O)c2cc(NC(=O)NC3CCCCC3)ccc2O1 | 5
O=C(CC1SC(=NC2CC3C=CC2C3)NC1=O)Nc1ccccc1Cl (centres undefined) | 8
Cc1noc(C)c1NC(=O)N(C)C[C@@H]1Oc2ccc(NS(=O)(=O)c3c(C)noc3C)cc2CC(=O)N([C@H](C)CO)C[C@@H]1C | -9
COc1ccc(S(=O)(=O)Nc2cccc3c2O[C@@H](CN(C)Cc2ccc(C(=O)Nc4ccccc4N)cc2)[C@H](C)CN([C@@H](C)CO)C3=O)cc1 | 55
COc1ccc(C(=O)NCC(=O)Nc2ccccc2C(F)(F)F)cc1OC | -6
Cc1noc(C)c1NC(=O)N(C)C[C@@H]1Oc2ccc(NC(=O)Nc3ccc4c(c3)OCO4)cc2C(=O)N([C@@H](C)CO)C[C@H]1C | -7
Cc1ccc(N(C(C)C(=O)Nc2ccc(Oc3ccccc3)cc2)S(C)(=O)=O)cc1C (centres undefined) | 7
COC(=O)COc1cccc(NC(=O)c2ccccc2-c2ccccc2C(=O)O)c1 | -4
Cc1noc(C)c1NC(=O)N(C)C[C@H]1Oc2ccc(NC(=O)c3ccncc3)cc2CC(=O)N([C@@H](C)CO)C[C@@H]1C | 29
C[C@@H]1CN([C@H](C)CO)C(=O)Cc2cc(NC(=O)CCCCCC(=O)Nc3ccccc3N)ccc2O[C@@H]1CN(C)S(=O)(=O)c1ccc(Cl)cc1 | 39
C[C@@H]1CCCCO[C@H](CN(C)C(=O)Cc2ccccc2)[C@@H](C)CN([C@H](C)CO)C(=O)c2cc(NC(=O)C3CCCCC3)ccc2O1 | -1
Cc1occc1C(=O)Nc1sc2c(c1C(=O)NCc1cccnc1)CCCC2 | -5
COc1ccc(S(=O)(=O)N(C)C[C@H]2Oc3c(NC(=O)Nc4ccc(F)cc4)cccc3C(=O)N([C@@H](C)CO)C[C@H]2C)cc1 | 73
Cc1ccnc(N=Cc2c(C)[nH]n(-c3ccccc3)c2=O)c1 | 35
COC(=O)c1c(NC(=O)COc2ccccc2)sc(C)c1-c1ccccc1 | 16
C[C@H](CO)N1C[C@H](C)[C@H](CN(C)C(=O)NC2CCCCC2)Oc2ccc(NS(=O)(=O)c3ccc(F)cc3)cc2CC1=O | 1
CC(C)NC(=O)Nc1ccc2c(c1)C(=O)N([C@H](C)CO)C[C@H](C)[C@@H](CN(C)C(=O)Nc1ccc(C(F)(F)F)cc1)O2 | 7
CCC(Sc1ccccn1)C(=O)Nc1ccc(Br)cc1 (centres undefined) | 10

Ordered by length of the SMILES (lowest first): 7 of the compounds above.
SMILES | NOMO-1 viab
CCC(Sc1ccccn1)C(=O)Nc1ccc(Br)cc1 (centres undefined) | 10
Cc1occc1C(=O)Nc1sc2c(c1C(=O)NCc1cccnc1)CCCC2 | -5
COC(=O)COc1cccc(NC(=O)c2ccccc2-c2ccccc2C(=O)O)c1 | -4
Cc1ccc(N(C(C)C(=O)Nc2ccc(Oc3ccccc3)cc2)S(C)(=O)=O)cc1C (centres undefined) | 7
Cc1noc(C)c1NC(=O)N(C)C[C@H]1Oc2ccc(NC(=O)c3ccncc3)cc2CC(=O)N([C@@H](C)CO)C[C@@H]1C | 29
COc1ccc(S(=O)(=O)N(C)C[C@H]2Oc3c(NC(=O)Nc4ccc(F)cc4)cccc3C(=O)N([C@@H](C)CO)C[C@H]2C)cc1 | 73
Cc1noc(C)c1NC(=O)N(C)C[C@@H]1Oc2ccc(NC(=O)Nc3ccc4c(c3)OCO4)cc2C(=O)N([C@@H](C)CO)C[C@H]1C | -7

More compounds:
SMILES | NOMO-1 viab
C[C@@H]1CN([C@H](C)CO)C(=O)c2cccc(NC(=O)C3CCCCC3)c2O[C@@H]1CN(C)CC1CC1 | 14
O=C(NCCO)c1nc(NCCO)c2ccccc2n1 | 15
C[C@@H]1CCCCO[C@@H](CN(C)C(=O)Nc2cccc3ccccc23)[C@@H](C)CN([C@H](C)CO)C(=O)c2cc(NS(=O)(=O)c3ccccc3)ccc2O1 | 55
C[C@H](CO)N1C[C@H](C)[C@@H](CN(C)S(=O)(=O)c2ccc(Cl)cc2)Oc2ccc(NC(=O)Cn3cnnn3)cc2C1=O | -29
CC(=O)Nc1ccc(NC(=O)CSc2nnc3c4cc(Br)ccc4n(C)c3n2)cc1 | 15
C[C@H]1CN([C@@H](C)CO)C(=O)Cc2cc(NS(=O)(=O)c3ccc(F)cc3)ccc2O[C@H]1CN(C)S(=O)(=O)c1ccc(Cl)cc1 | 3
C[C@H]1CN([C@@H](C)CO)C(=O)c2cccc(NC(=O)Nc3ccccc3)c2O[C@H]1CN(C)Cc1ccc(Oc2ccccc2)cc1 | 19
C[C@@H]1CN([C@@H](C)CO)C(=O)c2cccc(NC(=O)c3nc4ccccc4s3)c2O[C@H]1CN(C)C(=O)Nc1cccc2ccccc12 | ?
CCC(Sc1nnc(-c2ccc(NC(C)=O)cc2)n1C)C(=O)Nc1ccc(Br)cc1 (centres undefined) | 27
Cc1cc(N(CC(=O)O)S(C)(=O)=O)ccc1Br | -18
COC(=O)c1scc(S(=O)(=O)C(C)(C)C)c1N | 6
CC(C)NC(=O)N(C)C[C@@H]1Oc2ccc(NC(=O)Cc3ccccc3)cc2C(=O)N([C@@H](C)CO)C[C@H]1C | 2
O=c1ccc2cc(O)c(O)cc2o1 | 24
O=C(O)c1cc(Nc2nc(N3CCOCC3)nc(N3CCOCC3)n2)ccc1Cl | 15
O=C(CSc1ncnc2sc3c(c12)CCCC3)N1CCc2ccccc21 | -24
C[C@@H]1CN([C@H](C)CO)C(=O)Cc2cc(NC(=O)C3CCCCC3)ccc2O[C@H]1CN(C)Cc1ccc(Cl)c(Cl)c1 | ?
OCc1c[nH]c2ccccc12 | 28
Cc1ccc(SCCNS(=O)(=O)c2ccc3c(c2)OCCO3)cc1 | 2
Cc1ccc(S(=O)(=O)Nc2ccc3c(c2)C(=O)N([C@@H](C)CO)C[C@H](C)[C@H](CN(C)S(=O)(=O)c2cccs2)O3)cc1 | 9
C[C@@H]1CN([C@@H](C)CO)C(=O)c2cccc(NC(=O)c3cnccn3)c2O[C@H]1CN(C)C(=O)Nc1ccccc1 | 11
CN(C(=O)CSc1nc(O)cc(=O)n1-c1ccccc1F)c1ccccc1 | 6
Cc1cc(CNC(=O)c2cc(-c3cccnc3)nc3ccc(Cl)cc23)nn1C | -2
Cc1c(C(=O)C2C(=O)C(=O)N(Cc3cccnc3)C2c2ccc(F)cc2)cnn1-c1ccccc1 (centres undefined) | 12
COc1ccccc1CNc1nc2nc(C)cc(C)n2n1 | -16
C[C@@H]1CN([C@@H](C)CO)C(=O)c2cc(NS(=O)(=O)c3cn(C)cn3)ccc2O[C@@H]1CN(C)C(=O)NC1CCCCC1 | -14
CCOC(=O)c1oc2ccccc2c1NC(=O)CCN1CCCCC1 | 18
CCn1c(SCC(=O)Nc2ccc(C(C)=O)cc2)nnc1-c1cc(Br)ccc1O | 22
COc1ccc(NC(=O)N(C)C[C@@H]2Oc3c(NC(=O)c4ccncc4)cccc3C(=O)N([C@H](C)CO)C[C@@H]2C)cc1 | 1
C=C1C(=O)O[C@@H]2/C=C(\C)[C@H](OC(C)=O)C/C=C(/C)C[C@@H](OC(=O)/C(=C/CO)CO)C12 (some centres undefined) | 108*
COc1ccc(S(=O)(=O)N(C)C[C@@H]2Oc3c(NC(=O)C4CCCCC4)cccc3C(=O)N([C@@H](C)CO)C[C@H]2C)cc1 | 5
O=C(CSc1nnc(-c2ccc(Cl)cc2)n1-c1ccc(F)cc1)Nc1ccccc1F | -6
Cc1[nH]c2ccccc2c1C(c1c(C)[nH]c2ccccc12)C(C)C | 115*
CC(Oc1ccc(C(C)(C)C)cc1)C(=O)NCc1ccccn1 (centres undefined) | 16
N#C/C=C/N(C#N)c1ccccc1 | -6
CC(C)NC(=O)Nc1cccc2c1O[C@@H](CN(C)Cc1ccc(C(=O)O)cc1)[C@@H](C)CN([C@@H](C)CO)C2=O | -16
C[C@@H]1CCCCO[C@@H](CN(C)C(=O)Nc2ccccc2)[C@@H](C)CN([C@H](C)CO)C(=O)c2cc(NS(=O)(=O)c3cccs3)ccc2O1 | -14
COc1cc(NC(=O)COc2ccccc2[N+](=O)[O-])ccc1NC(=O)c1cccs1 | 16
C[C@H]1CN([C@@H](C)CO)C(=O)Cc2cc(NC(=O)Nc3cccc4ccccc34)ccc2O[C@@H]1CN(C)Cc1ccc(C(F)(F)F)cc1 | 125*
CNC[C@H]1Oc2ccc(NS(=O)(=O)c3c(C)noc3C)cc2C(=O)N([C@@H](C)CO)C[C@H]1C | 27
C[C@H]1CN([C@@H](C)CO)C(=O)Cc2cc(NC(=O)Nc3ccc4c(c3)OCO4)ccc2O[C@@H]1CN(C)Cc1ccc(Oc2ccccc2)cc1 | 40
CC(NC(=O)Cn1c(-c2nonc2N)nc2ccccc21)c1ccccc1 (centres undefined) | 20
COC(=O)c1c(C)oc2ccc(N(C(=O)c3ccccc3)S(=O)(=O)c3cccs3)cc12 | 20
C[C@H](CO)N1C[C@H](C)[C@H](CN(C)C(=O)NC2CCCCC2)Oc2ccc(NC(=O)CCC(F)(F)F)cc2CC1=O | 8
Cc1ccc(S(=O)(=O)Nc2ccc3c(c2)C(=O)N([C@@H](C)CO)C[C@@H](C)[C@H](CN(C)C(=O)NC2CCCCC2)O3)cc1 | -16

Two of the compounds above, in markdown.
| Compound | NOMO-1 viab |
| --- | --- |
| N#C/C=C/N(C#N)c1ccccc1 | -6 |
| CC(C)NC(=O)Nc1cccc2c1O[C@@H](CN(C)Cc1ccc(C(=O)O)cc1)[C@@H](C)CN([C@@H](C)CO)C2=O | -16 |

An excerpt; count on the stated rates, not on these rows.
